D2 agonist: agonists of human D2 dopamine receptor (beta-arrestin); 360,000 tested, 0.084% active; P14416; activation, % (no concentration beside the values); DiscoveRx PathHunter D2 beta-arrestin, luminescence, 90 min; 100% = 57 uM dopamine signal; in the data active = activation above about 40%; inconclusive = about 15% to 40%; inactive = below about 15%; further: compound concentration not given in the record; the text of the record calls up to 30% inactive
Target sequence (P14416 whole entry, looked up): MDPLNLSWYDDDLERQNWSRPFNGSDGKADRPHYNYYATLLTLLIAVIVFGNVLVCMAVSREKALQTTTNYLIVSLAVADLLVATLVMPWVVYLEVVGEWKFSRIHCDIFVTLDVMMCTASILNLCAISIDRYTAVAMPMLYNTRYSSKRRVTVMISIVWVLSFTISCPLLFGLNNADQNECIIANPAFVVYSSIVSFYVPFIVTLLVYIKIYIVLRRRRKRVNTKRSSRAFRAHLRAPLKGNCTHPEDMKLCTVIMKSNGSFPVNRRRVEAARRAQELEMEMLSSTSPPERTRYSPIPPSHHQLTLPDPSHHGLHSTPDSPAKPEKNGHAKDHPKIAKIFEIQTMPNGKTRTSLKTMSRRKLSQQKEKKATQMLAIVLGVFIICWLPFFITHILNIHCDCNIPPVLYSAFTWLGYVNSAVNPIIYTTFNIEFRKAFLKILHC
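Agonist mode: compounds alone added to overnight-plated D2 PathHunter cells for 90 min at 37 C, with 57 uM final dopamine (EC100) defining full response. Beta-arrestin recruitment detected by chemiluminescent reagent, read after 1 h at ambient temperature.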
TRPML1 agonist: activates the human TRPML1 channel; Q9GZU1; TRPML1-expressing cells, Ca2+ dye fluorescence, FDSS; host cell line not named in the record; reference of the full effect not given here; activation, % (no concentration beside the values); 410,000 tested, 0.12% active; in the data active = activation above about 50%; inconclusive = about 30% to 50%; inactive = below about 30%; further: 0% is about no effect; the text of the record puts the active cut at 80%
Target sequence (Q9GZU1 whole entry, looked up): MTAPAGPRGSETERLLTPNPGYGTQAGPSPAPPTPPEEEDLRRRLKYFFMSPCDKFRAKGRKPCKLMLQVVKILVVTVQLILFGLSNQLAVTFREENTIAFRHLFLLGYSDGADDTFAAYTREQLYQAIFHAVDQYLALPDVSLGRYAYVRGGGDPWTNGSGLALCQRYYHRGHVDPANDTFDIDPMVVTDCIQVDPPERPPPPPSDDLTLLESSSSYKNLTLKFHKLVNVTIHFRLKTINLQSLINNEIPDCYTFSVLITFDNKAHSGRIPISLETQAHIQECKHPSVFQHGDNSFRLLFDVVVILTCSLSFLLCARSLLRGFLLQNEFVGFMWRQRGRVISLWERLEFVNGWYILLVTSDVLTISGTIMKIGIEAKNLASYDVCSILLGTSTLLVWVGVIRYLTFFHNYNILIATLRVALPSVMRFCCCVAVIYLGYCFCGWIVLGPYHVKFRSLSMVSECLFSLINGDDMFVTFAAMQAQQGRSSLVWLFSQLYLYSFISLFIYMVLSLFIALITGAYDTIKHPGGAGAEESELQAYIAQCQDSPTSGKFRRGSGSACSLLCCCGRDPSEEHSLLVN
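TRPML1-DL cells, Tet-induced overnight (~16 h, 37 degrees C), loaded 45-90 min at room temperature with Ca8 no-wash calcium dye plus quencher. FDSS fluorescence: 10 s baseline, compound pin-transfer, 110 s agonist read, then EC80 54-4 (4uM final) and 110 s antagonist read.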
PINK1 expr mod: PINK1 expression modulation; AID 624263; Potency, µM (doses to about 76.6 µM), inactives show at the top dose activation (PINK1 increase), actives largely listed as activators; 410,000 tested, 0.2% active; PINK1 immunofluorescence, high-content cytometry, 24 h; active = well fitted activation curve with a large enough effect; inconclusive = small, poorly fitted or top-dose-only effect; inactive = flat fitted curve, though single readings scatter; cell line not stated here;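 further: potency means the concentration at half of the fitted maximal effect; % of control where 0% means no effect; nearly all actives have a fitted effect of over 65% in size; a mitochondrial uncoupler was the plate control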
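PINK1 protein, normally rapidly degraded, was detected by immunofluorescence after 24 hour compound treatment of a stable cell line. Titration data (5 concentrations) came from laser-scanning cytometry, with CCCP-treated wells as controls.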
Six1-Eya2 blk: inhibitors of human Six1/Eya2 interaction; Q15475+O00167; AlphaScreen GST-Six1/His-Eya2 binding, biochemical; active compounds read low; control for the full effect not named in the record; activity change, % (concentration not given with the values); 360,000 tested, 0.56% active; in the data active = activity change below about -65%; inconclusive = about -30% to -65%; inactive = above about -30%; further: on the % scale 0 is the no-effect control and ±100 the full control effect
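Homogeneous AlphaScreen proximity assay pairing GST-Six1 with His-tagged Eya2 (added as 5X mix: 250 nM and 500 nM) in 50 mM Tris pH 8.0, 300 mM NaCl, 1 mM TCEP. Glutathione donor and nickel acceptor beads; 1 h, 37 °C, dark.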
CtBP-E1A blk: inhibitors of CtBP/E1A interaction; AlphaScreen GST-E1A/His-CtBP binding, 1536-well; active compounds read low; control for the full effect not named in the record; activity change, % (no concentration beside the values); 340,000 tested, 0.49% active; AID 651724; in the data active means activity change below about -65%; inconclusive means about -30% to -65%; inactive means above about -30%; further: on the % scale 0 is the no-effect control and ±100 the full control effect
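Protein mix (5X: 125 nM each GST-E1A, His-CtBP) was incubated with pinned compound 2 h at 37 deg C in dark, in 50 mM Tris pH 8.0 buffer with 300 mM NaCl. Glutathione donor and nickel acceptor beads followed; AlphaScreen signal read after 1 h.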
TRPML1 inh: human mucolipin-1 channel inhibition; 390,000 tested, 0.02% active; AID 624415; activity change, negative = inhibition, % (no concentration beside the values); TRPML1-inducible cells, Ca2+ dye fluorescence, FDSS; active compounds read low; inhibition of EC80 agonist-evoked calcium signal; Q9GZU1; in the data active means activity change below about -50%; inconclusive means about -30% to -50%; inactive means above about -30%;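 further: stimulus is agonist 54-4 at its EC80 concentration; on the % scale 0 is the no-effect control and ±100 the full control effect; compound concentration not given in the record; the text of the record puts the active cut at -80%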
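Tet-induced TRPML1-DL cells loaded with Ca8 no-wash calcium dye were read kinetically on FDSS. Compound addition was followed by EC80 agonist 54-4 (4 uM final); inhibition was read over 110 s.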
The depositor's hits bear a star; ? = inconclusive; . = not tested or not shown; & = joins results of further samples; [ ] = remark or other dose.

SMILES	D2 agonist	TRPML1 agonist	PINK1 expr mod	Six1-Eya2 blk	CtBP-E1A blk	TRPML1 inh
Cc1ccc(C2C3=C(CC(C)(C)CC3=O)Nc3n[nH]c(C)c32)cc1 (stereo not drawn)	-0.2	-0.4	0.3%	9	-9	-10
Cc1cccc(-c2noc(CN(C(C)C)S(=O)(=O)c3ccc(Br)cc3)n2)c1	.	7.2	-0.4%	.	.	61
O=C(NCCc1nc2ccc(Cl)cc2[nH]1)C1CCC(=O)N(Cc2cccc(F)c2)C1 (stereo not drawn)	-1.1	-0.3	2.6%	8	5	14
CCOC(=O)c1cc(NC(=O)c2ccc(Cl)cc2)c(=O)n2c1oc1ccccc12	.	1.1	-0.3%	.	.	4
COC(=O)c1c(NC(=O)CN2CCC3(O)CCCCC3C2c2ccc(F)cc2)sc(C)c1C (stereo not drawn)	0.6	0.5	6.8%	0	12	58
CCS(=O)(=O)c1ccc2c(c1)N(S(=O)(=O)c1ccc(OC)cc1)CC(C(=O)O)O2 (stereo not drawn)	-5.1	-0.4	-1.3%	3	5	-9
Cc1ccc(C2C(C#N)=C(N)N(c3cccnc3)C3=C2C(=O)CCC3)c(C)c1 (stereo not drawn)	0.6	1.5	2.2%	1	-3	-2
COc1ccc(OCCSc2ncnc3nc[nH]c23)cc1	?	0.2	-0.7%	6	-23	7
C/C(=N\N=C1/SC(CC(=O)O)C(=O)N1c1ccccc1)c1ccc(C)cc1 (stereo not drawn)	-2.2	0.3	-1.6%	1	3	25
COc1cccc(NC(=O)CN(C)C(=O)Cc2ccc(Cl)cc2Cl)c1	-0.5	0.2	1.1%	1	1	-5
CCc1nn(C(C)C(=O)NCCc2ccc(OC)c(OC)c2)c(=O)c2cc3occc3n12 (stereo not drawn)	-2.9	1.4	1.2%	16	0	12
CCN(Cc1ccncc1)Cc1nc(Cc2ccccc2Cl)no1	-3.3	-0.2	0.4%	1	-3	-5
CC(=O)Oc1cccc(C(=O)Nc2ccccc2C(=O)N2CCCC2)c1	-3.8	1.5	-1.6%	3	2	42
CCOc1ccc(C(=O)Nc2nnc(S(=O)(=O)N(CC)c3ccccc3C)s2)cc1	.	2.0	3.5%	.	.	3
CCSc1nc2sc3c(c2c(=O)n1-c1ccc(OC)cc1)CCN(C)C3	-2.9	0.3	0.5%	1	-6	-4
Cc1cccc(NS(=O)(=O)c2ccc(C)c(C(=O)NCc3ccccn3)c2)c1	-2.3	0.2	-2.6%	-5	-1	9
Cn1c2c(c(=O)n(C)c1=O)CN(Cc1ccc3c(c1)OCO3)CN2	5.6	-0.5	-1.5%	-1	0	11
CC(C)CNC(=O)c1ccc(NC(=O)c2ccccc2[N+](=O)[O-])cc1	2.6	0.2	13%	-21	5	-2
COC(=O)C1CC(O)CN1C(=O)Nc1cccc(C(F)(F)F)c1 (stereo not drawn)	1.2	0.0	3.2%	0	0	-3
O=C(COC(=O)c1ccccc1Cl)Nc1nccs1	-2.9	-0.1	2.0%[38.3 µM]	4	6	1
Cc1ccc(C(=O)/C=C/c2ccc(F)cc2)o1	-2.5	0.6	4.9%	3	11	-3
CCCc1cc(-c2[nH]ncc2-c2ccc3c(c2)OCCCO3)c(O)cc1O	-1.6	0.8	-2.8%[38.3 µM]	-12	-9	16
CCOCCCNC(=O)c1cc(Sc2cccc(Cl)c2)nc2ccccc12	.	2.7	-4.1%	.	.	-13
Cc1cccc2nc(Cn3c(=O)n(CCCC(=O)NCc4ccco4)c(=O)c4ccccc43)cc(=O)n12	-3.7	-0.1	-0.3%	26	-14	6
CC(=O)Nc1ccc(NC(=O)CSc2nc(N)c(NC(=O)c3ccccc3F)c(=O)[nH]2)cc1	-7.0	-0.1	-0.5%	?	-13	18

Profiles, looked up by structure.
CCSc1nc2sc3c(c2c(=O)n1-c1ccc(OC)cc1)CCN(C)C3 as listed: D2 agonist: -2.9; TRPML1 agonist: 0.3; PINK1 expr mod: 0.5%; Six1-Eya2 blk: 1; CtBP-E1A blk: -6; TRPML1 inh: -4
CCOCCCNC(=O)c1cc(Sc2cccc(Cl)c2)nc2ccccc12 as listed: D2 agonist: .; TRPML1 agonist: 2.7; PINK1 expr mod: -4.1%; Six1-Eya2 blk: .; CtBP-E1A blk: .; TRPML1 inh: -13

New compounds follow.
SMILES	D2 agonist	TRPML1 agonist	PINK1 expr mod	Six1-Eya2 blk	CtBP-E1A blk	TRPML1 inh
CC(C)N1C(=O)CCC1C(=O)NCc1ccc(F)cc1Cl (stereo not drawn)	3.2	0.7	-0.2%	-3	-11	-28
COCCCNC(=O)c1ccccc1NS(C)(=O)=O	-1.1	1.4	8.4%[38.3 µM]	2	2	13
COc1ccccc1OCCC(=O)OCC(=O)Nc1ncc(Cl)cc1Cl	-1.4	2.2	-0.8%	-2	0	-16
COc1ccccc1-c1noc(-c2ccc(N3CCN(C)CC3)c([N+](=O)[O-])c2)n1	.	-0.7	1.3%	.	.	6
CCOC(=O)c1cnc2ccc(OCC)cc2c1NCCc1ccc(OC)c(OC)c1	.	-0.7	0.8%	.	.	-8
COc1ccc(C2CC(=O)C(C=NCCCN3CCOCC3)=C(O)C2)cc1 (stereo not drawn)	-0.3	0.7	-0.8%	7	-5	5
CCC(C)N1C(=O)S/C(=C/c2ccc(Sc3nc4ccccc4[nH]3)o2)C1=O (stereo not drawn)	-4.8	3.9	.	-1	2	0
Cc1cccc(NC(=O)c2ccc(S(=O)(=O)N3CCN(C)CC3)cc2)c1C	-3.8	-0.5	1.0%	-1	-12	19
Cc1cc(C)n2nc(SCC(=O)N3CCN(c4ccc(F)cc4)CC3)nc2n1	5.3	3.2	0.8%	0	1	-4
CC(C)c1ccc(CNc2ccc3c(c2)ncn3C)cc1	3.9	.	8.0%	-13	-2	.
O=C(Cn1cnc2cc([N+](=O)[O-])ccc2c1=O)NCCc1ccc(Cl)cc1	8.6	0.0	-1.0%	?	?	-4
O=C(O)CSc1cccnc1Sc1ccc(Cl)cc1	-1.3	4.7	-0.8%	1	8	-3
N#Cc1c(N)n[nH]c1CCCN	1.3	-0.4	3.3%[38.3 µM]	4	1	-1
O=C(NCC1CCCO1)c1ccccc1NS(=O)(=O)c1ccc(F)cc1 (stereo not drawn)	0.2	0.9	0.2%	20	10	2
O=C(Nc1ccc(Cl)cc1C(F)(F)F)c1ccc(Cl)cc1	-1.0	-0.8	0.8%	4	1	-5
Cc1cc(C)nc(SCNC(=O)c2ccc(Cl)cc2)n1	1.8	0.0	2.6%	4	13	-9
Cc1nc(NC(=O)CSc2nnc(-c3ccc4c(c3)OCO4)o2)c(Cl)cc1Cl	-4.6	-0.2	4.1%	-10	-9	-5
COc1cccc(CNS(=O)(=O)c2cc(Br)cc3c2N(C(C)=O)C(C)C3)c1 (stereo not drawn)	-1.3	-0.6&3.9	1.7%	-2	1	-1&-3
Cc1ccc(OCC(=O)NC2CCSc3ccccc32)cc1 (stereo not drawn)	-4.0	4.4	-0.6%	-9	-1	27
FC(F)(F)c1ccc(Oc2ccc3c(C(F)(F)F)cc(C(F)(F)F)nc3n2)cc1	0.8	-0.4	14%[38.3 µM]	2	4	1
COc1cc2c(cc1OC)C1CCN3C(=O)CCC3N1CC2 (stereo not drawn)	0.4	-0.1	-5.1%	0	3	37
CC(C)NC(=O)NC(=O)COc1c(F)c(F)cc(F)c1F	0.4	0.5	0.1%	16	2	-5
O=C(O)C1CCC(CN(Cc2cccc(Br)c2)C(=S)Nc2ccccc2F)CC1 (stereo not drawn)	0.0	0.3	-1.6%	7	0	17
CCCCCCOC(=O)C[N+](C)(C)CCOC1CC2CCC1(C)C2(C)C (stereo not drawn)	-2.3&-9.7	0.4	-4.2%[38.3 µM]	0	8	2
Cc1nc(N2CCN(c3ccccc3)CC2)nc2c1C(=O)CC(c1ccccc1)C2 (stereo not drawn)	-2.0	0.1	1.9%	-1	5	0

Single entries from the list.
For D2 agonist, CCCCCCOC(=O)C[N+](C)(C)CCOC1CC2CCC1(C)C2(C)C (stereo not drawn) has the entry -2.3&-9.7
For CtBP-E1A blk, FC(F)(F)c1ccc(Oc2ccc3c(C(F)(F)F)cc(C(F)(F)F)nc3n2)cc1 has the entry 4

(further entries)
SMILES	D2 agonist	TRPML1 agonist	PINK1 expr mod	Six1-Eya2 blk	CtBP-E1A blk	TRPML1 inh
COc1ccc(CNC(=O)c2cc3c(=O)n4cccc(C)c4nc3s2)cc1	.	1.2	2.8%	.	.	7
O=C(COc1ccc(Br)cc1)NCc1ccccn1	-0.2	-0.5	1.1%[38.3 µM]	-3	-24	18
CCCCC12CN3CC(C)(CN(C1)C3c1ccc([N+](=O)[O-])o1)C2=O (stereo not drawn)	-5.7	-0.1	4.2%	-1	.	-4
Nc1cc(-c2ccc(Cl)cc2)nn1S(=O)(=O)c1cccc2nsnc12	-6.9	-0.4	0.5%	-27	-2	17
CCCc1cc(=O)[nH]c(SCCCCN2C(=O)c3ccccc3C2=O)n1	2.3	3.3	-0.7%	3	-13	11
CCOC(=O)C(C)Sc1snnc1C (stereo not drawn)	0.1	0.2	-0.8%[38.3 µM]	7	1	-5
CCCCN(C)C(=O)c1sc(=O)n(Cc2ccccc2F)c1C	-1.0	-1.3	0.2%	0	0	.
O=C(CSc1nnc(-c2ccco2)n1-c1ccccc1)NCCc1ccccc1	-0.8	-0.1	-0.1%	3	-1	-21
O=C(CS(=O)CC(=O)N(c1ccccc1)C(C(=O)NC1CCCC1)c1cccs1)Nc1ccc(F)cc1 (stereo not drawn)	-2.5	0.5	0.2%	13	12	10
C=CCn1c(SCC(=O)Nc2ccccc2F)nc2ccccc2c1=O	-3.7	2.5	7.0%	1	-9	22
Cn1c(O)c(N=NC(=N)N)c2ccccc21	-8.5	.	1.5%	0	-1	.
CN(C(=O)c1cc2c(=O)n3ccccc3nc2n1C)C1CCCCC1	-4.6	0.4	1.1%	-1	10	-4
C=CCC1CCC/C(=N\NS(=O)(=O)c2ccc(C)cc2)C1 (stereo not drawn)	-3.7	0.6	0.7%	-13	0	-4
CC(=O)C1=C(C)NC(=O)NC1c1ccc(OC2CCCC2)cc1 (stereo not drawn)	2.7	-0.3	8.2%[38.3 µM]	-1	-4	4
CCc1nonc1NC(=O)COc1cc(C)c(Cl)c(C)c1	3.1	-1.1	4.8%	-22	.	27
O=C(NC1CCN(Cc2ccccc2)CC1)c1cccc(S(=O)(=O)Nc2ccc(F)cc2)c1	2.1	0.5	3.2%	-9	-8	-11
CN1CCN(CCCCC(=O)c2ccccc2)CC1	-0.7	0.7	-0.5%	-1	2	7
CCCCN(C(=O)C1=COCCO1)c1c(N)n(CCC)c(=O)[nH]c1=O	-1.8	-0.5	-0.6%	4	3	-1
Cc1c(NC(=O)CCCN2C(=O)c3cccc4cccc(c34)C2=O)c(=O)n(-c2ccccc2)n1C	-0.3	-0.2	-0.4%	-5	-13	-9
C=CCn1c(N)c(C(=O)Nc2ccccc2)c2nc3ccccc3nc21	2.6	0.3	8.8%	-1	-4	14
Cc1ccc(Cn2c(=O)n(CCc3ccccc3)c(=O)c3c(C)c(C)sc32)cc1	.	2.1	1.9%	.	.	9
